# AF4-AF9 inh = inhibitors of human MLL-AF4/AF9 interaction | P42568 | AlphaScreen, biotin-AF4 peptide binding to FLAG-AF9 | inhibition, % at 10 µM | actives 0.47% (n = 350,000);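 active means every replicate reaching a set inhibition limit, whatever the replicate mean, cut at about 25% in these data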;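 further: 0% = plate neutral control median and 100% = total signal loss; the record names both 10 and 1 µM as test concentration; the first replicate is given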
# Target sequence (P42568 whole entry, looked up): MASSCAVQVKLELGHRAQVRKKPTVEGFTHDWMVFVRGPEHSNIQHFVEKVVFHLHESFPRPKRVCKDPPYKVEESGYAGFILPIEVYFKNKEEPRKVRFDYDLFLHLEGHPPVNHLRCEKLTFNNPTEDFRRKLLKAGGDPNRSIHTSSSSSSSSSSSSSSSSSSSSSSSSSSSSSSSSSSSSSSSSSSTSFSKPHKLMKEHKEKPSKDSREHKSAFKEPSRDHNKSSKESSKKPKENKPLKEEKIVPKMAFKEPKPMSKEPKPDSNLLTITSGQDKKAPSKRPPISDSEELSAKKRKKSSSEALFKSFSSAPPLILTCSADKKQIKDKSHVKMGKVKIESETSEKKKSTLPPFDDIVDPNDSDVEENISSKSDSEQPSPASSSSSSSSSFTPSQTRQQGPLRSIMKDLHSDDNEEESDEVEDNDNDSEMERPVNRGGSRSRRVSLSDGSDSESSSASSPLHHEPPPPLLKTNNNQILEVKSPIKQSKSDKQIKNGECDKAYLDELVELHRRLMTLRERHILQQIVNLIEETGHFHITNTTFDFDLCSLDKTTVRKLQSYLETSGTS
# rRNA inh HTS = inhibitors of bacterial rRNA selective over humanized ribosomes | E. coli WT GFP vs humanized-ribosome RFP mutants, fluorescence, 24 h; active compounds read low; DMSO median 0, no signal -100 | GFP signal change (wild-type ribosome), % (concentration not given with the values) | actives 1.6% (n = 350,000) | AID 720706;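 active means significant combined selectivity score with lowered wild-type GFP, culture density cut under 30%, mutant RFP and density less affected; inactive means any of these conditions unmet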; further: one replicate is shown; some compounds called inactive have numbers as strong as hits
# ALR inh = blocks human ALR sulfhydryl oxidase activity. actives 3.8% (n = 290,000). inhibition, % (concentration not given with the values). AID 485317. purified ALR, DTT oxidation, H2O2 HRP-luminol luminescence. P55789;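 active means mean and each replicate at 75% or more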;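 further: stock transfer was 7.5 nL into about 7.5 µL; 0% = neutral wells and 100% = wells with inactivated enzyme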
# Target sequence (P55789 whole entry, looked up): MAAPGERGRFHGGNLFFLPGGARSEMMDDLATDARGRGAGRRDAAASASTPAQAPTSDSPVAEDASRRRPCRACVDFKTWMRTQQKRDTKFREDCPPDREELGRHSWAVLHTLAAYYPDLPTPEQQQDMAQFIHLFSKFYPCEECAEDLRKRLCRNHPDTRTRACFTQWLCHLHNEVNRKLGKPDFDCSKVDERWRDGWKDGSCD
# FGF22 binding = shifts melting point of recombinant human FGF22 | Q9HCT0 | recombinant FGF22 thermal shift, SYPRO orange fluorescence; percent of sucrose octasulfate shift, DMSO zero | calls only at 9.99 µM | actives 1.5% (n = 340,000) | AID 651658;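 active means melting point raised past a set limit in the mean and every replicate; three in four hits are not shown here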
# Target sequence (Q9HCT0 whole entry, looked up): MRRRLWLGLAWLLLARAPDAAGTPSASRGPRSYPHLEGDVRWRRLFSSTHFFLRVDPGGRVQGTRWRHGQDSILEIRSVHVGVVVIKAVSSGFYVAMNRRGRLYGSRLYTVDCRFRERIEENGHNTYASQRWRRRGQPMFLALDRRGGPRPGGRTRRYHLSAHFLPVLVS
# Beta cell apopt = blocks beta cell apoptosis; INS-1E cytokine-induced death, ATP luminescence, 48 h; percent of positive-control rescue, neutral wells zero; protection from apoptosis, % (test concentration not listed); actives 0.8% (n = 300,000);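 active means all replicates at 75% or more, or half of them and the mean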;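 further: 0% = cytokine-treated negative control wells and 100% = positive control rescue; higher means more ATP so stronger rescue from cytokine killing; wells of about 40 µL received 100 nL stock; the first replicate is given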
# rRNA inh HTS OD600 = second read-out of rRNA inh HTS, no call of its own (marks repeat the call); OD600 change, %; measured here: OD600 growth;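 optical density of the mix in the first replicate; 0 = DMSO median and -100 = no signal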
# rRNA inh HTS RFP = further read-out of rRNA inh HTS, marked with its call; RFP signal change, %; measured here: RFP humanized mutant strains;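 first replicate; 0 = DMSO median and -100 = no signal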
# * marks the source's active call; other numbers are inactive results; i = inactive; / = no result given; & = joins results of further samples.
SMILES,AF4-AF9 inh,rRNA inh HTS,rRNA inh HTS OD600,rRNA inh HTS RFP,ALR inh,FGF22 binding,Beta cell apopt
Cc1ccnc(NC(=O)C(Cc2ccccc2)NC(=O)c2ccccc2)c1 (configuration not stated),-2.4,/,/,/,/,i,0.2
COC(=O)c1ccc(CNC(=O)COC(=O)c2cc(Cl)ccc2O)cc1,-3.8,/,/,/,/,i,3.4
COC(=O)c1cc(CNC(=O)C2CC(=O)N(c3ccc4c(c3)OCCO4)C2)ccc1OC (configuration not stated),-3.1,/,/,/,/,i,-1.2
O=C(Nc1cccc(S(=O)(=O)NC2=NCCC2)c1)c1ccc(=O)[nH]c1,-2.5,/,/,/,/,i,-6.5
Cc1ccc(S(=O)(=O)N(CC(=O)N=Nc2c(O)[nH]c3ccccc23)c2ccc(C)c(C)c2)cc1,10.3,/,/,/,/,i,-6.1
CC(NC(=O)c1ccco1)C(=O)N1CCN(c2cccc(Cl)c2)CC1 (configuration not stated),0.1,/,/,/,/,i,-1.9
Cc1c(C(=O)Nc2nnc(C3CC3)s2)oc2ccccc12,1.2,/,/,/,/,i,5.6
Cc1ccc(S(=O)(=O)CCC(=O)N2CCN(c3ccccc3O)CC2)cc1,-1.6,/,/,/,/,i,0.1
CCOC(=O)[C@H](CCc1ccccc1)N[C@@H](C)C(=O)N1CCC[C@@H]1C(=O)O,-1.9,/,/,/,/,i,0.2
Cc1onc(-c2c(F)cccc2Cl)c1C(=O)N[C@@H]1C(=O)N2C(C(=O)O)C(C)(C)S[C@H]12 (some centres not stated),-2.8,/,/,/,-0.1,i,/
CC(=O)[C@H]1CC[C@H]2[C@@H]3CC=C4C[C@@H](O)CC[C@]4(C)[C@H]3CC[C@]12C,-0.5,/,/,/,-10.7,i,/
NS(=O)(=O)c1cc(C(=O)O)cc(N2CCCC2)c1Oc1ccccc1,-3.0,/,/,/,-5.5,i,/

# The list goes on; it opens with the five that closed the last part.
SMILES,AF4-AF9 inh,rRNA inh HTS,rRNA inh HTS OD600,rRNA inh HTS RFP,ALR inh,FGF22 binding,Beta cell apopt
Cc1ccc(S(=O)(=O)CCC(=O)N2CCN(c3ccccc3O)CC2)cc1,-1.6,/,/,/,/,i,0.1
CCOC(=O)[C@H](CCc1ccccc1)N[C@@H](C)C(=O)N1CCC[C@@H]1C(=O)O,-1.9,/,/,/,/,i,0.2
Cc1onc(-c2c(F)cccc2Cl)c1C(=O)N[C@@H]1C(=O)N2C(C(=O)O)C(C)(C)S[C@H]12 (some centres not stated),-2.8,/,/,/,-0.1,i,/
CC(=O)[C@H]1CC[C@H]2[C@@H]3CC=C4C[C@@H](O)CC[C@]4(C)[C@H]3CC[C@]12C,-0.5,/,/,/,-10.7,i,/
NS(=O)(=O)c1cc(C(=O)O)cc(N2CCCC2)c1Oc1ccccc1,-3.0,/,/,/,-5.5,i,/
CCCCC1C(=O)N(c2ccccc2)N(c2ccc(O)cc2)C1=O (configuration not stated),-5.2,/,/,/,69.0,i,/
CC(C)(C)c1cc(-c2nc(N)nc(N)n2)c(O)c(C(C)(C)C)c1,/,-11.2,-32.5,-2.9,/,i,3.8
C#CCOCCOCCOCCNc1nc(N2CCN(C(=O)Cn3cc(CCCN=C(N)N)nn3)CC2)nc(N2CCN(C(=O)[C@H]([C@@H](C)CC)n3cc(CCCCN)nn3)CC2)n1,/,8.8,13.1,-1.8,/,i,0.4
COc1cccc(NC(=O)c2cccc(Cl)c2)c1,/,5.5,2.4,-6.7,/,i,-1.6
Cc1ccc([C@@H]2CC=C(C(=O)O)[C@H](c3ccc(F)cc3)N2S(=O)(=O)c2ccc(C)cc2)cc1,-2.3,-9.4,3.5,-7.2,/,/,5.7
COC(=O)[C@]1(Cc2ccccc2)N[C@H](CN(C)C(=O)c2ccc(F)cc2)[C@@H]2C(=O)N(Cc3ccccc3)C(=O)[C@@H]21,0.0,-13.8,-29.8,-3.3,/,/,-1.2
O=S(=O)(c1ccccc1)c1nc(-c2cccs2)oc1NCc1cccnc1,10.1,-11.8,-13.8,6.2,/,/,-2.1
Cc1ccc(NC(=O)COC(=O)CCc2ccccc2)cc1S(=O)(=O)N1CCOCC1,1.7,7.0,9.1,2.4,/,/,1.1
CO[C@@H]1CN(C)C(=O)c2cc(NC(=O)C3CC3)ccc2OC[C@H](C)N(C(=O)C2CCOCC2)C[C@H]1C,-0.8,4.1,15.4,-4.3,/,i,/
CC(C)NC(=O)N1CC2(C1)[C@@H](c1ccccc1)[C@@H](CO)N2CCC(F)(F)F,0.6,0.5,3.1,-0.9,/,i,/
O=[N+]([O-])c1ccc(OC2OCC(O)C(O)C2O)cc1 (configuration not stated),2.6,5.1,11.6,0.0,/,i,/
CNC[C@H]1OCCCC[C@@H](C)Oc2ccc(NS(=O)(=O)c3ccc(C)cc3)cc2C(=O)N([C@H](C)CO)C[C@@H]1C,4.1,6.0,3.2,1.5,/,i,/
C[C@@H]1CN([C@H](C)CO)C(=O)c2cc(NC(=O)Nc3ccc(F)cc3)ccc2O[C@@H]1CN(C)Cc1ccc(-c2ccccc2)cc1,2.2,-1.7,-3.2,4.8,/,i,/
COc1ccc(CC(=O)Cc2ccc(OC)c(OC)c2)cc1OC,3.3,0.4,1.2,-4.1,/,i,/
CN1C[C@H]2[C@@H](c3ccccc31)[C@@H](CO)N2S(=O)(=O)c1ccccc1,-5.6,-5.6,-10.3,-1.4,/,i,/
C/C(=N/Nc1ccc(C(=O)c2c(C)cc3ccccn23)cc1[N+](=O)[O-])c1ccc(O)cc1,1.3,-8.8,7.2,-3.4,/,i,/
COc1ccc(S(=O)(=O)N(C)C[C@H]2OCc3cn(nn3)CCCC(=O)N([C@@H](C)CO)C[C@@H]2C)cc1,0.5&0.0,-1.0&6.4,4.0&9.9,-0.8&1.9,/,i,/
COC(=O)C[C@@H]1C=C[C@@H](NC(=O)Nc2ccc(C(F)(F)F)cc2)[C@H](CO)O1,3.2,-12.9,-10.9,-0.9,/,i,/
CCS(=O)(=O)Nc1ccc2c(c1)C(=O)N(C)[C@H]1CC[C@@H](CC(=O)NCc3ccc(OC)cc3)O[C@@H]1CO2,-1.5,4.7,10.7,-0.7,/,i,/
C[C@@H]1CN([C@H](C)CO)C(=O)Cc2cc(NS(C)(=O)=O)ccc2O[C@@H]1CN(C)S(=O)(=O)c1cccs1,1.5,1.5,3.6,0.5,/,i,/
CO[C@@H]1CN(C)C(=O)c2cc(NC(=O)NC(C)C)ccc2OC[C@@H](C)N(CC2CC2)C[C@H]1C,-1.7,0.6,-4.3,2.0,/,i,/
CO[C@H]1CN(C)C(=O)c2cc(NC(=O)NC(C)C)ccc2OC[C@@H](C)N(Cc2ccc(-c3ccccn3)cc2)C[C@@H]1C,4.0,-3.0,-12.6,6.6,/,i,/
CN(C(=O)c1cccc(NC(=O)Cc2ccc(NC(=O)C3CCCN(C(=O)C4CCC4)C3)cc2)c1)C1CCC1 (configuration not stated),-0.1,-2.7,9.2,-2.8,/,/,/
Cc1cn([C@H]2C[C@H](O)[C@@H](CCC(=O)NCCc3ccc4ccccc4c3)O2)c(=O)[nH]c1=O,-0.2,-2.7,-7.4,1.5,/,i,/
FC(F)(F)c1cccc(-c2cc3nc(NC4CCCCC4)ccn3n2)c1,-2.1,-10.2,-11.4,0.7,/,i,/
Cc1ccc(S(=O)(=O)Nc2ccc3c(c2)CC(=O)N([C@@H](C)CO)C[C@@H](C)[C@@H](CN(C)Cc2ccccc2)O3)cc1,2.0,0.5,-12.6,2.5,/,i,/
COc1ccc(OC)c(NC(=O)CCNS(=O)(=O)c2ccc3c(c2)CC(C)N3C(C)=O)c1 (configuration not stated),0.8,0.7,8.4,1.9,/,i,/
CCCC#Cc1ccc([C@@H]2[C@@H](C#N)N(C(=O)C3CC3)[C@@H]2CO)cc1,-16.8,1.4,2.6,-2.8,/,i,/
N#C[C@H]1[C@@H](c2ccc(C3=CCCC3)cc2)[C@@H](CO)N1C(=O)Nc1ccccc1F,-2.2,0.7,3.0,0.1,/,i,/
CCS(=O)(=O)Nc1ccc2c(c1)C(=O)N(C)[C@@H]1CC[C@@H](CC(=O)NCCOC)O[C@H]1CO2,-0.7,-1.9,-5.2,2.0,/,i,/
COc1cc2c(c(Br)c1N)-c1cc(Br)c(N)cc1C2=O,5.3,-11.8,4.4,0.8,/,i,/
COCc1cc(C)nc2sc3c(=O)n(Cc4ccco4)nnc3c12,-0.5,11.8,6.4,1.0,/,i,/
O=C(C[C@@H]1C[C@H]2c3cc(NS(=O)(=O)c4ccc(F)cc4)ccc3O[C@H]2[C@H](CO)O1)NCc1cccc(F)c1,3.0,-10.9,-35.0,1.7,/,i,/
C/C=C/c1ccc2c(c1)O[C@@H](CN(C)S(C)(=O)=O)[C@@H](C)CN([C@H](C)CO)S2(=O)=O,-0.5,-3.1,6.6,0.9,/,i,/
O=C(c1ccc(Cl)cc1)N1CCN(c2ccc(N3CCOCC3)nn2)CC1,2.8,18.6,22.8,2.9,/,i,/
O=C(NC(c1ccccc1)c1ccsc1)C1CCN(Cc2ccccc2)CC1 (configuration not stated),11.2,8.6,10.9,-1.8,/,i,/

# Complete entries as entered above. Order of screens: AF4-AF9 inh, rRNA inh HTS, rRNA inh HTS OD600, rRNA inh HTS RFP, ALR inh, FGF22 binding, Beta cell apopt
# Shown for Cc1ccc(S(=O)(=O)N(CC(=O)N=Nc2c(O)[nH]c3ccccc23)c2ccc(C)c(C)c2)cc1 → 10.3, /, /, /, /, i, -6.1
# Shown for CN1C[C@H]2[C@@H](c3ccccc31)[C@@H](CO)N2S(=O)(=O)c1ccccc1 → -5.6, -5.6, -10.3, -1.4, /, i, /

# (list continues)
SMILES,AF4-AF9 inh,rRNA inh HTS,rRNA inh HTS OD600,rRNA inh HTS RFP,ALR inh,FGF22 binding,Beta cell apopt
CCCCOCCCNC(=O)C[C@@H]1C[C@@]2(C(=O)OCC)CCC=C2N(Cc2ccccc2)C1=O,-5.6,-6.7,6.7,4.7,/,i,/
COCC#Cc1ccc2c(c1)O[C@H](CN(C)Cc1ccccc1)[C@@H](C)CN([C@H](C)CO)S2(=O)=O,1.7,-16.9,-34.5,1.5,/,i,/
COC(=O)C[C@H]1C=C[C@H](NS(=O)(=O)c2cn(C)cn2)[C@@H](CO)O1,-3.6,19.2,15.2,5.7,/,i,/
C[C@@H]1CN([C@H](C)CO)C(=O)c2cc(C#Cc3ccccc3F)cnc2O[C@@H]1CN(C)S(=O)(=O)c1ccccc1,0.4,2.2,-1.9,1.5,/,i,/
Cc1cc(C)cc(C(O)c2ncc(-c3ccc4ccccc4c3)[nH]2)c1 (configuration not stated),2.7,-58.2,-71.4,-16.1,/,i,/
COc1ccc(Cn2cc(CN3CC(N4CCSCC4)CS3(=O)=O)nn2)cc1 (configuration not stated),-1.3,11.0,11.7,0.6,/,i,/
C[C@@H]1CN([C@H](C)CO)C(=O)c2cc(NC(=O)CCN3CCOCC3)ccc2O[C@H]1CN(C)S(=O)(=O)c1ccccc1,-1.8,-3.0,4.7,-1.7,/,i,/
O[C@@H]1C[C@H](c2ccccc2)N(Cc2cccs2)C[C@H]1n1cc(C2CC2)nn1,-1.2,-6.3,-22.8,-12.6,/,i,/
COc1cccc(NC(=O)C2(C)CCN2Cc2cccc(OC)c2F)c1 (configuration not stated),-3.1,-21.8,-45.4,-4.4,/,i,/
Cc1noc(C)c1NC(=O)Nc1cccc2c1O[C@@H](CN(C)C(=O)Nc1c(C)noc1C)[C@H](C)CN([C@@H](C)CO)C2=O,-2.1,0.4,8.2,-1.9,/,i,/
COc1cccc(-c2ccc([C@@H]3[C@@H](CO)N4CCCCN(S(=O)(=O)c5cn(C)cn5)C[C@@H]34)cc2)c1,-2.6,-0.5,11.3,14.8,/,i,/
O=C(NCc1ccccn1)[C@@H]1CCCN1C(=O)[C@@H]1CCCN1,-2.1,7.2,9.5,2.7,/,i,/
CNC[C@@H]1Oc2cc(-c3cccc(C(=O)N(C)C)c3)ccc2S(=O)(=O)N([C@@H](C)CO)C[C@H]1C,0.6,1.0,-5.0,1.2,/,i,/
Cc1ccc(S(=O)(=O)N(C)C[C@H]2Oc3c(NS(=O)(=O)c4ccccc4)cccc3C(=O)N([C@H](C)CO)C[C@@H]2C)cc1,-1.1,1.6,-0.7,-1.2,/,i,/
C[C@H](CO)N1C[C@H](C)[C@@H](CN(C)C(=O)Nc2ccc(C(F)(F)F)cc2)Oc2c(NC(=O)CCCCCC(=O)Nc3ccccc3N)cccc2C1=O,-1.1,-2.2,-3.0,-2.2,/,i,/
O=C(O)C(c1ccccc1)C(O)C1CC=CCC1 (configuration not stated),1.2,2.5,11.9,-1.3,/,i,/
CO[C@H]1CN(C)C(=O)c2cc(NS(C)(=O)=O)ccc2OC[C@@H](C)N(C(=O)C2CC2)C[C@@H]1C,-0.9,1.0,2.0,-1.2,/,i,/

# The list is partial (hit frequency here may not be typical).
